NPYLR7 ag – activates Aedes aegypti NPYLR7 receptor; HEK293T NPYLR7/Galpha15, GCaMP6s calcium fluorescence; activation, % at 10 µM; 270,000 compounds, 0.15% hits; AID 1259423; in the data active means activation above about 40%;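 further: 0% = vehicle and 100% = reference agonist at the receptor; some compounds past the cut are filed as inactive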
NPYLR7 ag max-min – also measured in NPYLR7 ag; calls as there; activation, %; measured here: Max-Min RFU normalised activation; some inactives read as strong as hits;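 span of the calcium signal over five minutes; 0% = vehicle and 100% = native peptide agonist; compound fluorescence can raise it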
An asterisk follows results filed as active; & = joins results of further samples. Not all compounds are listed, so the mix of outcomes need not match the whole.

SMILES	NPYLR7 ag	NPYLR7 ag max-min
Cc1nn(-c2ncccn2)c2c1C(C(=O)c1ccc3c(c1)OCO3)CC(=O)N2 (stereo not drawn)	1.7	22.2
C=CCC1(CC=C)CCCN1C(=O)C(=O)N1CCOCC1	-5.2	-6.6
CC1=NC2=C(C(=O)CC(C)(C)C2)C(c2ccco2)C1C(=O)OC1CCCCC1 (stereo not drawn)	3.8	-1.5
Cc1ccc(-n2c(C)nnc2SCC(=O)N2CCCC(C)C2)cc1 (stereo not drawn)	5.4	0.6
COc1ccc2[nH]c3c(c2c1)CCN(C(=O)c1cc(C(C)(C)C)nn1Cc1ccccc1)C3c1ccc(-c2ccccc2C(F)(F)F)o1 (stereo not drawn)	12.3	1.1
CCc1c(C)nc(-c2cccc(C(F)(F)F)c2)nc1N1CCN(S(=O)(=O)c2c(C)cc(C)cc2C)CC1	6.7	10.0
CCc1ccc(-c2nn(CC(=O)Nc3cccc(OC)c3)c(=O)c3nc(C)sc23)cc1	3.0	0.5
CCn1cc(C(=O)NCc2nc(C)cc(C(F)(F)F)n2)c(C)n1	0.5	-0.4
Cc1cnc(C(=O)N2CCOC(Cc3ccccc3)C2)cn1 (stereo not drawn)	27.1	18.8
O=C(NCc1ccncc1)C(=O)NCC1OCCN1S(=O)(=O)c1cc(F)ccc1F (stereo not drawn)	-2.4	4.3
CCn1c(SCc2ncc(-c3ccc(F)cc3)o2)nnc1-c1ccncc1	-7.1	-10.0
CC(=O)N(C)Cc1csc(COc2cc(C)cc(C)c2C)n1	9.9	-4.3
O=C(C1CC1)N1CCC(Oc2cccc(C(=O)N3C[C@H]4CC[C@H]3C4)c2)CC1	6.1&4.9	4.6&0.1
COc1ccc(CCNC(=O)c2ccc(-c3cc(-c4cccc(OC)c4)n[nH]3)cc2)cc1	25.9	16.1
CCOCCn1c(=NC(=O)c2cccc(S(C)(=O)=O)c2)sc2cc(F)cc(F)c21	1.3	-1.7
Cc1cccc(CO[C@]2(C(=O)NCC3CCCO3)CC(OCc3ccc(F)cc3)[C@H](O)[C@H](O)C2)c1 (stereo partly drawn)	3.2	3.8
S=C(NCc1cccs1)N1CCN(C(=S)NCc2cccs2)CC1	-0.8	-1.0
Cc1c(C(=O)OCc2ccc(Cl)cc2)nnn1-c1ccccc1	1.0	-9.6
CC(C)(CO)CNc1nccn2ccnc12	-0.6	-0.5
N#CC1(c2ccc3c(c2)OCO3)CCCCCC1	2.4	1.3
O=c1[nH]nc(SCc2ccc(F)cc2)n2nc(-c3ccc(F)cc3)cc12	-0.3	-0.4
Cn1c(=O)n2ncnc2c2c3c(sc21)CCCC3	5.3	-1.7
Cc1nn(Cc2ccccc2)c(C)c1CNC(=O)COc1cc(Cl)ccc1Cl	-5.0	-6.9
Cn1cc(C2CC2C(=O)OCCc2ccccc2)cn1 (stereo not drawn)	2.6	1.3
CCCCNC(=O)c1ccc2nc(CC)c(N(C)C(=O)c3cccc(OC)c3)n2c1	15.9	14.9

(further entries)
SMILES	NPYLR7 ag	NPYLR7 ag max-min
CCN1C(=O)CC(CC(=O)N(C)Cc2nc3c(s2)CCCC3)(c2cccc(C(F)(F)F)c2)C1=O (stereo not drawn)	23.3	9.5
O=C(NCCN1CCCCC1)c1cc2ccccc2s1	3.5	2.7
Cn1nnc2c(N(Cc3ccccc3)Cc3ccccc3)ncnc21	10.1	3.5
COc1ccccc1NC(=O)N(Cc1cccc(Cl)c1)CC1CC(c2ccccc2Cl)=NO1 (stereo not drawn)	12.4	22.7
CCc1ccc(NC(=O)Cn2ncn3nc4c(c3c2=O)CCCC4)cc1	3.7	-3.1
COc1ccc(C2CC(=O)C3C(=Nc4ccccc4NC3c3cccc(O)c3)C2)cc1 (stereo not drawn)	-4.7	-3.1
COCCCN(Cc1ccc(F)cc1)CC(O)c1ccccc1 (stereo not drawn)	17.7	16.6
Cc1nc2cc(C(=O)N3CCSCC3)ccc2n1C1CCS(=O)(=O)C1 (stereo not drawn)	2.3	0.4
CC(C)=CC(=O)N1CCC(c2nc(-c3cccnc3)no2)CC1	-4.4	-3.9
CC(C)(C)c1cc(-n2ccnc2)n2ncc(-c3ccc(Cl)cc3)c2n1	4.4	3.9
Cc1cccnc1C(NC(=O)C1CCN(CCOc2ccc(F)cc2)CC1)c1ccc(Cl)cc1 (stereo not drawn)	0.8	-6.7
CN1NC(c2ccccc2O)C2C(=O)N(Cc3ccccc3)C(=O)C21 (stereo not drawn)	2.3	0.5
Cc1ccc(Nc2ccc(N3CCN(C(=O)C4CCCCC4)CC3)nn2)cc1	-2.2	-0.9
CC[C@]12CCCN3CCc4c(n(c5ccccc45)C(=O)C1)[C@@H]32	-4.4	-6.3
Cc1cccc(C(=O)Nc2cc(-c3ccccc3)nn2-c2cc(Cl)ccc2Cl)c1	-16.0	-14.8
COc1ccc(C2CC(c3ccccc3Cl)=NN2C(=O)CN2CCC3(CC2)OCCO3)cc1 (stereo not drawn)	-2.4	5.8
CSc1ccccc1CN1CCC(Cc2ccc(F)cc2)CC1	1.5	3.3
CC1ON=C(c2ccccn2)NC1=O (stereo not drawn)	2.0	0.0
COc1cc2cc3c4cc(OC)c(OC)cc4cc[n+]3c(C)c2cc1OC	-2.5	-7.3
Cc1cccc(-n2c(C)nn(CN3CCN(c4ccccc4F)CC3)c2=S)c1	7.7&1.4	3.6&1.0
O=C(O)c1ccccc1N=Cc1nc(-c2ccc(Br)cc2)oc1O	-11.1	-6.8
CCCCCCN(C(=O)c1cccc(F)c1)C(C)c1nc2ccccc2c(=O)n1-c1cccc(Cl)c1C (stereo not drawn)	0.3	-2.7
COc1ccc(-c2ccc(C)c(NC(=O)C3CC3)c2)nn1	1.6	23.3
COc1ccccc1C(CNC(=O)C1CCC1)NC(=O)C1CCC1 (stereo not drawn)	-2.5	-3.0
Cc1nn(C)c(Cl)c1CNCC(C)(C)N1CCN(C)CC1	-2.3	-2.5

The listing continues.
SMILES	NPYLR7 ag	NPYLR7 ag max-min
COc1ccc(C(C2Sc3nc(C)nn3C2=O)N2CCc3ccccc3C2)cc1 (stereo not drawn)	-1.1	-3.8
CC1C(=O)NN=C1C(=O)N=Nc1c(O)[nH]c2ccccc12 (stereo not drawn)	-6.8	-1.8
CCN(CCC#N)C(=O)c1cccc(S(=O)(=O)N(C)c2ccc(C)cc2)c1	2.5	1.3
CN(C)c1ncccc1CNC(=O)c1cccc(N2CCNC2=O)c1	1.5	1.3
CCc1c(C)nc2c(-c3ccc(Cl)cc3)c(COC)[nH]n2c1=O	-14.1	-22.3
CC1CCCCC1N1CN=C(NS(C)(=O)=O)NC1 (stereo not drawn)	1.7	-1.6
CC(C)(C)c1ccc(C(=O)N2CCN(C(C(=O)NCc3ccncc3)C3CCCC3)CC2)cc1 (stereo not drawn)	0.7	8.3
Cc1ccc2c(c1)/C(=c1/sc3nc4ccccc4n3c1=O)C(=O)N2	-2.5	-6.0
CSc1nn(CC(=O)Nc2ccccc2)c(N)c1-c1nc(-c2ccc3c(c2)OCO3)no1	8.8	3.7
N#CC1=C(NC(=O)CCl)N=C(SCc2ccccc2)C(C#N)C12CCCCC2 (stereo not drawn)	-0.1	-1.4
CCN1CCN(C(=O)c2ccc(CSc3nnc(-c4cccs4)n3-c3cccc(Cl)c3)cc2)CC1	-13.1	-11.6
Cn1c(=O)c2[nH]c(C3CCCC3)nc2n(C)c1=O	-8.1&-6.6	-13.7&-7.9
CC(C)N1CCC(C)(C(=O)Nc2cccc3nsnc23)C1 (stereo not drawn)	5.9	5.9
CCOC(=O)c1cccc(NC(=O)Cn2nc(SC)c(S(=O)(=O)c3ccc(C)cc3)c2N)c1	2.9	-6.5
COCCCn1c(C)c(C)n2c3c(=O)n(Cc4ccccc4)c(=O)n(C)c3nc12	0.8	20.1
COC(=O)c1cc(Cl)cc(NC(=O)c2ncoc2C(C)C)c1	5.1	3.5
O=C(NC1CCN(c2ccccc2C(=O)NC2CC2)CC1)c1cccc(Cl)c1	-2.2	4.1
CCN(CC)C(=O)CSc1nnc(-c2ccc(F)cc2)n1-c1ccccc1	7.3	13.0
CCOC(=O)c1ccc(-n2cc(O)c(C(=O)OCC)n2)cc1	-2.5	-6.6
Cc1cc(C)cc(N(CCC#N)C(=O)COC(=O)CC(C)NC(=O)c2ccccc2)c1 (stereo not drawn)	-0.1	-3.6
Cc1cc(C)n(-c2nc(C)c(C)c(=O)n2CC(=O)N2CCCc3ccccc32)n1	-4.3	1.0
COCCNc1nc(NCCO)c2cnn(C)c2n1	1.5	-1.7
CCc1nnc(-c2cc3ccccc3n2CC(=O)Nc2cccc(NC(C)=O)c2)o1	0.8	2.6
Cc1noc(C(C)N2CCc3c(cccc3NC(=O)Nc3ccc(F)cc3)C2)n1 (stereo not drawn)	-15.8	-17.0
O=C(CSc1ccc(-c2ccc(-n3cccn3)cc2)nn1)NCc1ccccc1	-6.3	-8.8

Following part.
SMILES	NPYLR7 ag	NPYLR7 ag max-min
Cc1[nH]n(-c2nc(-c3cccc([N+](=O)[O-])c3)cs2)c(=O)c1N=Nc1ccccc1Cl	-8.3	-12.5
CCCCCCC(=O)Nc1nnc(SCCCOc2ccccc2)s1	-2.3	7.0
Cc1ccccc1N1C(=O)CC(SC(N)=N/N=C\c2ccc(O)c(O)c2)C1=O (stereo not drawn)	-10.0	-15.5
COc1ccc(CCC2CCCN(C(=O)c3cnc(C(C)C)[nH]c3=O)C2)cc1 (stereo not drawn)	7.1	6.7
CCOC(=O)c1cc(-c2ccc(N3CCN(C(=O)c4ccc(OC)c(F)c4)CC3)cc2)n(-c2ccccc2C)n1	26.2	10.3
CCOC(=O)CCC(=O)N1CCC2(CC1)NC(=O)c1cc(C)ccc1N2	6.5	31.9
COc1cccc(CNC(=O)CCC2CCCN(C(=O)c3ccccc3N(C)C)C2)c1 (stereo not drawn)	2.3	5.2
COc1ccc(OC)c(/C=C2N=C(/C=C/c3cccc(Cl)c3Cl)OC\2=O)c1	-2.5	-6.4
COc1cccc(C(=O)Nc2cccc(-n3nc(OC)nc3-c3cccc(C(F)(F)F)c3)c2)c1	0.3	3.7
O=C(c1cnn(-c2ccccc2Cl)c1-c1ccccc1)N1CCOCC1	26.7	26.9
Cc1ccc(C(CNC(=O)c2cc3n(n2)CCN(C)C3)N2CCOCC2)o1 (stereo not drawn)	-3.8	-10.0
O=S(=O)(c1ccc(C(F)(F)F)cc1Cl)N1CCN(c2nccc(-c3cccc(C(F)(F)F)c3)n2)CC1	5.5	1.8
COc1ccc2cc(CCNC(=O)c3cc4ccccc4o3)c(=O)[nH]c2c1	-0.5	18.9
CC(=O)c1c(C)[nH]c(C(=O)CN2CCCC2c2cccs2)c1C (stereo not drawn)	7.0	7.2
O=C1OC(/C=C/c2ccc(Cl)cc2Cl)=NC/1=C/c1ccc2c(c1)OCO2	4.3	-1.1
CCCC(=O)Nc1c(-c2cccc(F)c2)nc2ccccn12	-4.5	1.4
CC(C)N(C(C)C)C(C(=O)N(C)CC1OCCO1)c1ccccc1 (stereo not drawn)	0.2	-2.3
COc1ccc(-c2nnc(SCc3cccc(C#N)c3)n2-c2ccc(OC)cc2)cc1	4.7	-6.6
C=CCN(CC(=O)N1CCc2sccc2C1COc1cccc(OC)c1)C(=O)c1cccc(Cl)c1 (stereo not drawn)	-2.5	-0.4
O=C(NCCc1cnn(-c2ccccc2)c1)[C@@H]1C[C@@H]2C=C[C@H]1C2	-2.6	-3.6
COC(=O)C1C(=O)C2=C(CC1C)NC(C)=C(C(=O)OC1CCCC1)C2c1ccc(C)o1 (stereo not drawn)	-2.1	-1.9
Cc1ccc(C2CC(C(F)(F)F)n3ncc(C(=O)Nc4cc(Cl)ccc4C)c3N2)cc1 (stereo not drawn)	-0.3	-5.4
Cc1cccnc1C(NC(=O)C1CCN(C(=O)c2ccc3c(c2)OCO3)CC1)c1ccccc1 (stereo not drawn)	-9.6	-20.5
O=[N+]([O-])c1ccc(Sc2ccc([N+](=O)[O-])cc2)cc1	-9.0	-15.8
CCCN1C(=O)c2ccccc2NC1/C=C/c1ccco1 (stereo not drawn)	1.2	2.7
Nc1ncnc2c1ncn2C1C[C@H](O)[C@@H](CO)O1 (stereo partly drawn)	-8.9	-11.8
CCOC(=O)C1(Cc2cccc(Cl)c2)CCCN(C(=O)c2ccccc2-c2ncc[nH]2)C1 (stereo not drawn)	2.0&6.8	1.4&2.4
CSc1nnc(-c2ccco2)c(-c2ccco2)n1	12.9	13.4

Ordered by length of the SMILES (ascending): some entries from above.
SMILES	NPYLR7 ag	NPYLR7 ag max-min
CSc1nnc(-c2ccco2)c(-c2ccco2)n1	12.9	13.4
CCCN1C(=O)c2ccccc2NC1/C=C/c1ccco1 (stereo not drawn)	1.2	2.7
CCCC(=O)Nc1c(-c2cccc(F)c2)nc2ccccn12	-4.5	1.4
CC(C)N(C(C)C)C(C(=O)N(C)CC1OCCO1)c1ccccc1 (stereo not drawn)	0.2	-2.3
CC(=O)c1c(C)[nH]c(C(=O)CN2CCCC2c2cccs2)c1C (stereo not drawn)	7.0	7.2
CCOC(=O)CCC(=O)N1CCC2(CC1)NC(=O)c1cc(C)ccc1N2	6.5	31.9
COc1ccc2cc(CCNC(=O)c3cc4ccccc4o3)c(=O)[nH]c2c1	-0.5	18.9
COc1ccc(CCC2CCCN(C(=O)c3cnc(C(C)C)[nH]c3=O)C2)cc1 (stereo not drawn)	7.1	6.7
COc1ccc(-c2nnc(SCc3cccc(C#N)c3)n2-c2ccc(OC)cc2)cc1	4.7	-6.6
COc1ccc(OC)c(/C=C2N=C(/C=C/c3cccc(Cl)c3Cl)OC\2=O)c1	-2.5	-6.4
O=C(NCCc1cnn(-c2ccccc2)c1)[C@@H]1C[C@@H]2C=C[C@H]1C2	-2.6	-3.6
Cc1cccnc1C(NC(=O)C1CCN(C(=O)c2ccc3c(c2)OCO3)CC1)c1ccccc1 (stereo not drawn)	-9.6	-20.5
C=CCN(CC(=O)N1CCc2sccc2C1COc1cccc(OC)c1)C(=O)c1cccc(Cl)c1 (stereo not drawn)	-2.5	-0.4
COc1cccc(C(=O)Nc2cccc(-n3nc(OC)nc3-c3cccc(C(F)(F)F)c3)c2)c1	0.3	3.7
O=S(=O)(c1ccc(C(F)(F)F)cc1Cl)N1CCN(c2nccc(-c3cccc(C(F)(F)F)c3)n2)CC1	5.5	1.8
CCOC(=O)c1cc(-c2ccc(N3CCN(C(=O)c4ccc(OC)c(F)c4)CC3)cc2)n(-c2ccccc2C)n1	26.2	10.3
